motility – Vibrio cholerae motility inhibitors, OD read-out (AID 588778). inhibition, %; hits with a dose series show IC50 in µg/mL. Vibrio cholerae motility, OD read-out; higher % means a stronger effect; test concentration not given here; primary cut-off and reference of the scale not given here; strong numbers were not always called active. 10,000 tested, under 10 active; in the data active = confirmed in a dose series
motility viability – also measured in motility; calls as there; inhibition, %; measured here: bacterial viability at 10 ug/mL;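 higher means fewer living bacteria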
* hit, by the source's call.

For C=CCc1cccc2cc(C(=O)NCc3ccc(C(=O)OCC)o3)c(=O)oc12 the results were motility 57% and motility viability 19.
Screening C=CCNC(=O)C(=O)Nc1ccccc1OCC returned motility 5% and motility viability -1.
`O=C(O)C1(c2ccc(Cl)c(Cl)c2)CCCC1` gave motility -12% and motility viability -2.
`CCOC(=O)c1c(-c2ccccc2)csc1NC(=O)COc1ccccc1[N+](=O)[O-]` gave motility -9% and motility viability -2.
For O=C(Cc1ccc(-c2ccccc2)cc1)N1CCOCC1 the results were motility 4% and motility viability -1.
`Cc1cc(C)nc(N(C#N)C(=S)N(C)C)n1` gave motility -6% and motility viability 10.
`O=C(Nc1ccc2snnc2c1)Nc1cccc2ccccc12` gave motility 57% and motility viability 41.
Screening O=C(NCc1ccc2c(c1)OCO2)c1cc(-n2cnnc2)ccc1Cl returned motility 5% and motility viability 1.
`CN(Cc1cnn(C)c1)S(=O)(=O)c1cccc([N+](=O)[O-])c1` gave motility -4% and motility viability -6.
CC(=O)Nc1ccc2c(C)cc(=O)[nH]c2c1 was read as motility -14% and motility viability -3.
For c1csc(-c2nnc3ccccn23)c1 the results were motility 4% and motility viability 2.
O=C(COc1ccccc1[N+](=O)[O-])Nc1sc2c(c1C(=O)NC1CCS(=O)(=O)C1)CCCC2 (centres undefined) was read as motility -17% and motility viability -11.
NC(=O)NC(c1ccccc1)c1ccccc1Br (centres undefined) was read as motility 9% and motility viability 7.
`CCOC(=O)c1cc2n(c1N(C(C)=O)C(C)=O)-c1ccccc1C2=O` gave motility 5% and motility viability 2.
`CC(C(=O)Nc1ccc(I)cc1)N1C(=O)C2C3C=CC(C4CC34)C2C1=O` (centres undefined) gave motility 15% and motility viability -1.
c1ccc(OCCn2c3ccccc3n3c(SCc4nc5ccccc5[nH]4)nnc23)cc1 was read as motility 9% and motility viability 4.
For O=c1cc(O)c2sc3nc(-c4ccccc4)cc(C(F)(F)F)c3c2[nH]1 the results were motility -6% and motility viability 3.
CS(=O)(=O)N1CCN(C(=O)Nc2cccc(Cl)c2Cl)CC1 was read as motility -2% and motility viability -3.
`O=C1CC(c2ccc(F)cc2)Sc2ccccc2N1` (centres undefined) gave motility 9% and motility viability -2.
For N#Cc1c(N)sc2c1-c1ccccc1CC2 the results were motility 17% and motility viability 29.
For COC(=O)Nc1ccc(C)cc1[N+](=O)[O-] the results were motility 7% and motility viability 10.
`CCOCCCNCC#Cc1ccccc1` gave motility 10% and motility viability 3.
Screening Cn1nc(-c2ccc(OCC(=O)Nc3ccc(F)cc3)cc2)c2ccccc2c1=O returned motility -18% and motility viability -3.
`COc1cc(C(C)(C)C)cc(Br)c1O` gave motility 8% and motility viability 0.

22 neighbouring entries already listed, quoted:
`O=C(O)C1(c2ccc(Cl)c(Cl)c2)CCCC1` gave motility -12% and motility viability -2.
`CCOC(=O)c1c(-c2ccccc2)csc1NC(=O)COc1ccccc1[N+](=O)[O-]` gave motility -9% and motility viability -2.
For O=C(Cc1ccc(-c2ccccc2)cc1)N1CCOCC1 the results were motility 4% and motility viability -1.
`Cc1cc(C)nc(N(C#N)C(=S)N(C)C)n1` gave motility -6% and motility viability 10.
`O=C(Nc1ccc2snnc2c1)Nc1cccc2ccccc12` gave motility 57% and motility viability 41.
Screening O=C(NCc1ccc2c(c1)OCO2)c1cc(-n2cnnc2)ccc1Cl returned motility 5% and motility viability 1.
`CN(Cc1cnn(C)c1)S(=O)(=O)c1cccc([N+](=O)[O-])c1` gave motility -4% and motility viability -6.
CC(=O)Nc1ccc2c(C)cc(=O)[nH]c2c1 was read as motility -14% and motility viability -3.
For c1csc(-c2nnc3ccccn23)c1 the results were motility 4% and motility viability 2.
O=C(COc1ccccc1[N+](=O)[O-])Nc1sc2c(c1C(=O)NC1CCS(=O)(=O)C1)CCCC2 (centres undefined) was read as motility -17% and motility viability -11.
NC(=O)NC(c1ccccc1)c1ccccc1Br (centres undefined) was read as motility 9% and motility viability 7.
`CCOC(=O)c1cc2n(c1N(C(C)=O)C(C)=O)-c1ccccc1C2=O` gave motility 5% and motility viability 2.
`CC(C(=O)Nc1ccc(I)cc1)N1C(=O)C2C3C=CC(C4CC34)C2C1=O` (centres undefined) gave motility 15% and motility viability -1.
c1ccc(OCCn2c3ccccc3n3c(SCc4nc5ccccc5[nH]4)nnc23)cc1 was read as motility 9% and motility viability 4.
For O=c1cc(O)c2sc3nc(-c4ccccc4)cc(C(F)(F)F)c3c2[nH]1 the results were motility -6% and motility viability 3.
CS(=O)(=O)N1CCN(C(=O)Nc2cccc(Cl)c2Cl)CC1 was read as motility -2% and motility viability -3.
`O=C1CC(c2ccc(F)cc2)Sc2ccccc2N1` (centres undefined) gave motility 9% and motility viability -2.
For N#Cc1c(N)sc2c1-c1ccccc1CC2 the results were motility 17% and motility viability 29.
For COC(=O)Nc1ccc(C)cc1[N+](=O)[O-] the results were motility 7% and motility viability 10.
`CCOCCCNCC#Cc1ccccc1` gave motility 10% and motility viability 3.
Screening Cn1nc(-c2ccc(OCC(=O)Nc3ccc(F)cc3)cc2)c2ccccc2c1=O returned motility -18% and motility viability -3.
`COc1cc(C(C)(C)C)cc(Br)c1O` gave motility 8% and motility viability 0.

(list continues)
COC(=O)c1ccc(OC(=O)COc2cc(C)c(Cl)c(C)c2)cc1 was read as motility 13% and motility viability 5.
For COC(=O)Nc1ccc(S(=O)(=O)Nc2cc(C(C)C)c(O)c(C(C)C)c2)cc1 the results were motility 35% and motility viability 14.
`CS(=O)(=O)N(CC(=O)NC1CC2CCC1C2)c1ccccc1Cl` (centres undefined) gave motility -14% and motility viability -10.
For CN1CCN(NC(=O)NC23CC4CC(CC(C4)C2)C3)CC1 the results were motility 5% and motility viability 23.
Cc1cc(N)ccc1-c1ccc(CO)o1 was read as motility 21% and motility viability 27.
CCC(CC)C(=O)Nc1cc(Cl)c(O)c(Cl)c1 was read as motility 3% and motility viability -3.
Screening COc1ccc2nc(NCc3cccnc3)sc2c1 returned motility 22% and motility viability 23.
CCCCN1C(=N)C(CC)(CC)C(=O)NC1=O was read as motility 3% and motility viability -3.
`CC(=O)c1cccc(Oc2ccc(-c3nnc(-c4ccccc4)o3)cc2[N+](=O)[O-])c1` gave motility 4% and motility viability 1.
For O=C(Nc1nonc1NC(=O)c1sc2ccccc2c1Cl)c1sc2ccccc2c1Cl the results were motility 2% and motility viability -10.
Cc1cc(Cl)ccc1Nc1ncnc2ccc(Br)cc12 was read as motility 13% and motility viability 0.
Screening O=C(O)c1cnc(SCc2ccccc2)[nH]c1=O returned motility 6% and motility viability -3.

2 successive compounds out of the list so far, quoted:
Cc1cc(Cl)ccc1Nc1ncnc2ccc(Br)cc12 was read as motility 13% and motility viability 0.
Screening O=C(O)c1cnc(SCc2ccccc2)[nH]c1=O returned motility 6% and motility viability -3.

(more compounds)
O=C(O)c1cccc(CSc2ncccn2)c1 was read as motility -12% and motility viability -2.
`CN(CCc1ccccn1)S(=O)(=O)c1ccc2c3c(cccc13)C(=O)N2` gave motility 5% and motility viability 2.
`OC(COc1ccccc1Cl)Cn1nnc2ccccc21` (centres undefined) gave motility 7% and motility viability -7.
`C=CCc1cccc2cc(C(=O)N3CCN(c4ccccn4)CC3)c(=O)oc12` gave motility 6% and motility viability 3.
`CCC(C)NC(=O)NCc1ccccc1Cl` (centres undefined) gave motility 10% and motility viability 0.
`COc1ccc2[nH]c(=O)c(C=O)cc2c1` gave motility -14% and motility viability 1.
For CC(C)(C)c1ccc(C(=O)Nc2nsc(-c3ccc(Cl)cc3)n2)cc1 the results were motility 14% and motility viability 13.
For CCc1sc(C(=O)Nc2ccon2)cc1Br the results were motility -6% and motility viability -5.
For FC(F)(F)C(=C(NC(=S)n1cnc2ccccc21)C(F)(F)C(F)(F)F)C(F)(F)F the results were motility -26% and motility viability -13.
Screening C/C(=N\N=C1\NC(=O)C(CC(=O)Nc2cccc(Cl)c2Cl)S1)c1ccco1 (centres undefined) returned motility 0% and motility viability -3.
Screening O=C(CN(CCc1ccccc1)S(=O)(=O)c1cc(Cl)ccc1Cl)Nc1ccccc1F returned motility 7% and motility viability -5.
For CC(C)OCCCNC(=O)C(=O)NCc1ccc2c(c1)OCO2 the results were motility -22% and motility viability -5.
For COc1c(C)cc(Br)cc1C(=O)Nc1cc([N+](=O)[O-])ccc1C the results were motility 33% and motility viability 16.
Screening N#Cc1ccccc1COc1ccc(Br)cc1C=O returned motility 2% and motility viability -10.
Screening O=C(Cn1cc(C(=O)C2CC2)c2ccccc21)Nc1ccccc1C(F)(F)F returned motility -2% and motility viability -11.
Cc1ccc(N2C(=O)/C(=C/c3ccc(I)o3)C(=O)NC2=S)c(C)c1 was read as motility 5% and motility viability 2.
Screening COc1ccc(Cl)cc1NC(=O)CSCc1ccccc1Br returned motility 3% and motility viability -4.
For Cc1cc(C(=O)Nc2sc3c(c2C(=O)NCc2ccco2)CCC3)no1 the results were motility 3% and motility viability -1.
`CCOC(=O)c1[nH]nc(C(=O)c2ccccc2)c1-c1ccccc1Cl` gave motility 1% and motility viability -8.
`CC12CCC(C(N)=O)(C(=O)C1=O)C2(C)C` (centres undefined) gave motility -12% and motility viability 4.
CC(=O)Nc1ccc2nc(NC(=O)c3cc4ccccc4o3)sc2c1 was read as motility 15% and motility viability -2.
Screening CCOCc1nnc(NC(=O)c2cccc(NC(=O)c3ccccc3)c2)s1 returned motility 20% and motility viability 15.
Screening COc1ccc(C(C)(C)C)cc1NC(=O)Nc1ccc2c(c1)OCO2 returned motility -15% and motility viability -5.
`O=C(CCSc1ccc([N+](=O)[O-])cc1)Nc1cccc2cccnc12` gave motility 5% and motility viability 5.
For N/C(=N\OC(=O)CC1CCCCC1)c1ccc(Br)cc1 the results were motility -3% and motility viability -8.
CCN(C(=O)CSc1ncc(C#N)c(N)n1)c1ccccc1 was read as motility -7% and motility viability 5.
For CCC(Sc1nc(-c2cccc(OC)c2)c(C#N)c(=O)[nH]1)C(=O)Nc1nnc(C(C)C)s1 (centres undefined) the results were motility -30% and motility viability -8.
`O=Cc1cccn1Cc1ccccc1[N+](=O)[O-]` gave motility 4% and motility viability 7.
`O=[N+]([O-])c1ccc(-c2csc(N3CCC(c4ccccc4)CC3)n2)cc1` gave motility -25% and motility viability -6.
O=[N+]([O-])c1cccc(C2CC(c3ccc(F)cc3)=NN2c2ccccc2)c1 (centres undefined) was read as motility -12% and motility viability -8.
COC(=O)C1=CNC=C(C(=O)OC)C1c1cccc2ccccc12 was read as motility 1% and motility viability -2.
Screening CCN(CC)CCN1C(=O)C(O)=C(C(=O)c2cccs2)C1c1cc(OC)ccc1OC (centres undefined) returned motility -1% and motility viability -1.
`CSc1nc(C)cc(OCCO)n1` gave motility -3% and motility viability 1.
Screening CSc1nc(-c2ccco2)nn1S(C)(=O)=O returned motility 1% and motility viability 1.
`CCOCCC(=O)NC(C)CCc1ccccc1` (centres undefined) gave motility 10% and motility viability -4.
`CCN(CC)c1ncnc2c1sc1nc(C)cc(C)c12` gave motility -3% and motility viability 1.
Screening O=c1nc(N(c2ccccc2)c2ccccc2)[nH]c(=O)[nH]1 returned motility 15% and motility viability 6.
For CCCn1nnc(NC(=O)c2cc(I)ccc2Cl)n1 the results were motility -1% and motility viability 1.
Screening CCOC(=O)C(Cc1ccccc1)C(=O)Nc1ccccc1OC (centres undefined) returned motility 5% and motility viability -1.
`Cc1ccc(S(=O)(=O)N2CCN(C(=O)N3CCCCC3)CC2)cc1C` gave motility 0% and motility viability -1.
Screening O=C(Nc1ccc(Br)cc1)c1ccc(CSC2=NCCS2)cc1 returned motility -5% and motility viability -5.
`COC(=O)CSc1nc(N2CCOCC2)c2c(c1C#N)CC(C)(C)SC2` gave motility 9% and motility viability 30.
Cc1cc(C)n2nc(Cc3ccccc3)c(-c3cccc4ccccc34)c2n1 was read as motility 1% and motility viability 9.
CC(C)C(c1ccc(O)cc1)c1ccc(O)cc1 was read as motility 9% and motility viability -1.
For Cc1nc(S(=O)(=O)Cc2ccccc2)nc2ccc(F)cc12 the results were motility 8% and motility viability 0.
`O=C(Nc1cc([N+](=O)[O-])ccc1O)c1ccc(Br)o1` gave motility -6% and motility viability 8.
O=C1CC(N2CCC(c3nc4ccccc4s3)CC2)C(=O)N1 (centres undefined) was read as motility 6% and motility viability 3.
Screening COc1ccccc1Nc1nc(N)nc(C(F)(F)F)n1 returned motility -4% and motility viability -5.
C1=C(c2cccnc2)Nc2ncnn2C1c1cccs1 (centres undefined) was read as motility 10% and motility viability 8.
For O=C1Nc2ccc(Br)cc2C1(O)Cc1ccncc1 (centres undefined) the results were motility -8% and motility viability 1.
Screening COc1ccccc1CCNC(=O)Nc1ccc(F)cc1F returned motility 7% and motility viability 3.
Screening O=C1CC(C(=O)NCc2ccccc2)N=C(N2CCCCC2)N1 (centres undefined) returned motility -3% and motility viability -6.
For CN(C)c1ccc(C(=O)OCc2ccccc2)cc1 the results were motility -4% and motility viability -8.
O=c1nc(/C=C/c2ccc(N3CCCC3)cc2)cc(C(F)(F)F)[nH]1 was read as motility -5% and motility viability -2.
CC1=CC(C)(C)N(C(=O)c2ccccc2)c2ccc(C)cc21 was read as motility 4% and motility viability -3.

Source: PubChem

Only part of the results is shown. The share of hits here may be higher or lower than overall.
